# Marburg entry inh: blocks Marburg virus binding to or entry into cells; AID 540276; Potency, µM (series often up to 37.8 µM), inactives show top-dose activity change, negative = inhibition, usual class: inhibitors; 300,000 tested, 1.8% active; Marburg virus pseudotyped entry inhibition, cell reporter; control for the full effect not named in the record; about a third of the inactives were read at about 46 µM; active = well fitted inhibition curve with a large enough effect; inconclusive = small, poorly fitted or top-dose-only effect, or effect the other way; inactive = flat fitted curve, though single readings scatter; tested in HEK293 cells; about a fifth of its hits are not listed in these tables; also: % is scaled to controls: 0 for no effect and ±100 for the full control effect; luciferase read-out
# NS1 function inh: influenza NS1 inhibition; S. cerevisiae slowed by influenza A NS1, growth recovery by OD600; Potency, µM (titrated, usually from 46.1 µM), for inactives: top-dose activity, positive = more growth; 270,000 tested, 0.4% active; also: actives are rising curves; nearly all actives have a fitted effect of over 50% in size
#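 Recovery from NS1-induced slow growth read by OD600 in budding yeast switched to galactose assay medium (pH 6.0, -URA) at 1:100 dilution. Compound 23 nl per well; the matching strain lacking NS1 serves as control.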
# SARS PLpro yeast: blocks SARS-CoV papain-like protease in a yeast assay. Potency, µM (top dose mostly 32.9 µM), inactives show top-dose activity, positive = growth rescue. 330,000 tested, 0.19% active. AID 485353. S. cerevisiae expressing SARS-CoV PLpro, growth rescue; control for the full effect not named in the record; also: 0% is about no effect; nearly all actives have a fitted effect of over 55% in size; growth read by luminescence after 48 h
# RE007 growth inh: less growth of the S. pombe RE007 Vpr strain; 360,000 tested, 0.21% active; S. pombe RE007 Vpr strain, BacTiter-Glo ATP luminescence, 24 h; control for the full effect not named in the record; AID 651644; Potency, µM (series often up to 92.2 µM), inactives show at the top dose activity change, negative = less growth; active = well fitted falling curve with a large enough effect; inconclusive = small, poorly fitted or top-dose-only effect; inactive = no such curve, though single readings can be large or run the other way;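 also: % is scaled to controls: 0 for no effect and ±100 for the full control effect; nearly all actives have a fitted effect of over 50% in size; the assay follows cell death caused by Vpr and the record does not say whether a fall means rescue or toxicity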
#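 Fission yeast strain RE007, carrying one chromosomally integrated HIV-1 vpr copy, was seeded at OD 0.01 in PMG+AL medium with 23 nL pinned compound. After 24 h at 30 °C and 99% humidity, viability was read by BacTiter-Glo luminescence.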
# Cruzain noTriton: blocks cruzain activity in detergent-free assay | P25779 | 200,000 tested, 2.3% active | Potency, µM, for inactives: max response, negative = inhibition, actives largely listed as inhibitors | purified cruzain, Z-FR-AMC fluorescence, no detergent; active = well fitted curve in the direction sought with a large enough effect; inconclusive = small, poorly fitted or top-dose-only effect, or another doubt; inactive = no such curve, though single readings can be large; an effect the other way counts as inactive or inconclusive;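 also: plate controls were enzyme without inhibitor for no effect and buffer without enzyme for full effect; nearly all actives have a fitted effect of over 40% in size; top concentration of the series not given in the record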
# Target sequence (P25779 123-467 limits assumed): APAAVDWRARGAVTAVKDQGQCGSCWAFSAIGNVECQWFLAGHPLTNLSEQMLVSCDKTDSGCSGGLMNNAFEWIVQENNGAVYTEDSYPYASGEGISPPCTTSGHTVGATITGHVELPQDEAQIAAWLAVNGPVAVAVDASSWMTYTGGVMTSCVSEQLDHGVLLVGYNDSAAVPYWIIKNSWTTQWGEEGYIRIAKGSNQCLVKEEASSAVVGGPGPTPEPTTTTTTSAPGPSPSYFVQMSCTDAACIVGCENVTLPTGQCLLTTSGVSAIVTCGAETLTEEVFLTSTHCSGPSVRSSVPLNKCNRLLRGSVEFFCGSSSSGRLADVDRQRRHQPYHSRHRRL
#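 Detergent-free condition (0.00005% Triton X-100) in acetate buffer pH 5.5 with DTT. 1.5 nM enzyme and compound were pre-mixed 15 min, then 2 uM Z-FR-AMC substrate added; reaction progress from fluorescence change between first and third reads (60 s).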
# StopGo reporter: FMDV 2A StopGo reporter, luciferase signal; human cells with a luciferase reporter of 2A StopGo recoding; control for the full effect not named in the record; 410,000 tested, 1.2% active; Potency, µM (series often up to 57.9 µM), for inactives: top-dose signal change, negative = less light; active = well fitted falling curve with a large enough effect; inconclusive = small, poorly fitted or top-dose-only effect; inactive = no such curve, though single readings can be large or run the other way; tested in HEK293T cells; also: % is scaled to controls: 0 for no effect and ±100 for the full control effect; nearly all actives have a fitted effect of over 45% in size; luciferase light after 4 h
# Cruzain inh Det: blocks cruzain activity in presence of Triton detergent; 200,000 tested, 0.43% active; Potency, µM, inactives show max response, negative = inhibition, most hits filed as inhibitors; AID 1478; purified cruzain, Z-FR-AMC fluorescence, 0.01% Triton; P25779; active = well fitted curve in the direction sought with a large enough effect; inconclusive = small, poorly fitted or top-dose-only effect, or another doubt; inactive = no such curve, though single readings can be large; an effect the other way counts as inactive or inconclusive;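 also: plate controls were neutral wells for no effect and buffer without enzyme for full effect; nearly all actives have a fitted effect of over 40% in size; top concentration of the series not given in the record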
#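 Z-FR-AMC hydrolysis (2 uM substrate) by cruzain (1.5 nM) monitored kinetically at ex 360/em 450 nm after 15 min room-temperature compound exposure; 0.01% Triton X-100, pH 5.5, 5 mM DTT.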
# Lassa entry inh: inhibitors of Lassa virus binding or cell entry | Potency, µM (titrated, usually from 37.9 µM), for inactives: at the highest dose activity change, negative = inhibition, hits mostly inhibitors | 300,000 tested, 1.2% active | AID 540256 | Lassa virus pseudotype entry inhibition, cell reporter; control for the full effect not named in the record; active means well fitted inhibition curve with a large enough effect; inconclusive means small, poorly fitted or top-dose-only effect, or effect the other way; inactive means flat fitted curve, though single readings scatter; tested in HEK293 cells; also: % is scaled to controls: 0 for no effect and ±100 for the full control effect; nearly all actives have a fitted effect of over 50% in size; luciferase read-out
# Numbers without * were called inactive; ? = inconclusive; · = not tested or not shown; & = joins results of further samples; [ ] = dose if it differs, or a comment. Unless noted, calls follow the shape of the dose curve; as a rule, active means well fitted rising curve with a large enough effect; inconclusive means small, poorly fitted or top-dose-only effect; inactive means no such curve, though single readings can be large or run the other way. Potency is read from the fitted curve at half-maximal effect. Random draw from the library, and some 4.6% of all compounds hit somewhere here.
SMILES,Marburg entry inh,NS1 function inh,SARS PLpro yeast,RE007 growth inh,Cruzain noTriton,StopGo reporter,Cruzain inh Det,Lassa entry inh
CC1CCCC(C)N1C(=O)COC(=O)c1ccccc1O (stereo not drawn),23%[46.1 µM],·,-1%,-15%,·,43%[activator],·,15%[46.1 µM]
CC(=O)c1cccc(NC(=O)C(C)OC(=O)C2=NNC(=O)CC2)c1 (stereo not drawn),10%,·,10%,6%,·,7%,·,13%
C(#CCN1CCCC1)CN1CCCC1,-23%&-23%&-23%[46.1 µM],·,2%,25%,-6%,-5%,-1.1%,-28%
N#Cc1c(/N=C/c2ccccc2)oc(-c2ccccc2)c1-c1ccccc1,-3%,5%,6%,-6%,32µM*,·,-8.0%,-25%
CC(=O)c1cccc(NC(=O)N2C3CCC2CC(NC(=O)Nc2ccccc2)C3)c1 (stereo not drawn),·,-2%,0%,10%,·,1%,·,·
COc1cc(C(=O)Nc2cccc(-c3nc4cc(C)cc(C)c4o3)c2)cc(OC)c1OC,-7%,4%,0%,7%,?,·,0.4%,?
Cn1cnc2c1c(=O)n(Cc1ccc(Cl)cc1Cl)c(=O)n2C,·,-33%,-4%,33%,·,0%,·,·
Cc1cc2c(cc1S(=O)(=O)N(C)Cc1ccccc1)OCC(=O)N2,·,-6%,-2%,1%,·,-20%,·,·
CC(C)(C)C(=O)NC1CCN(S(=O)(=O)c2cccc(C(F)(F)F)c2)CC1,11%,-5%,5%,22%,5%,7%,1.8%,12%
N#Cc1c(NC(=O)CCCl)sc2c1CCCCC2,?,·,-2%,-16%,·,40%[activator],·,-23%
CCOCc1nnc(NC(=O)CSCc2ccccc2)s1,4%,-5%,0%,-19%,1%,-6%,0.3%,17%
Cc1cc(-n2c(C)cc(C(=O)CCl)c2C)no1,2.8µM*,·,?,-23%,·,22µM*,·,?
CC(C)CN1CCC(C(=O)NCC2CCCO2)CC1 (stereo not drawn),6%,8%,19%,-3%,-3%,-22%,-2.1%,13%
CN(C)[C@@H](CO)c1nnc([C@H](Cc2ccc(O)cc2)NC(=O)C2CCNCC2)o1,·,3%,-1%,-4%,·,-9%,·,·
Cc1ccc(S(=O)(=O)c2nc(Cc3ccccc3)oc2N2CCOCC2)cc1,0%[46.1 µM],·,8%,-2%,·,5%,·,-3%
NC(=O)C(c1ncc(C(F)(F)F)cc1Cl)c1c(Cl)cccc1Cl (stereo not drawn),-6%,-4%,-4%,-11%,7%,3%,-2.3%,?
CSc1nnc(NC(=O)c2cc3ccccc3oc2=O)s1,·,-15%,5%,-2%,-3%,32%[activator],-1.0%,·
CCOc1ccc(Nc2cc(C)nc3nncn23)cc1,3%[46.1 µM],·,·,·,-5%,4%,-1.8%,3%[46.1 µM]
Cc1ccccc1NC(=O)CN1C(=O)N/C(=C\c2cccn2-c2cccc(C(=O)O)c2)C1=O,-2%[46.1 µM],5%,1%,-3%,·,-7%,·,0%
O=C(CN1C(=O)C(=O)N(Cc2ccccc2)C1=O)c1ccc[nH]1,?,·,-1%,13%,·,1%,·,5%
COC(=O)c1c(NC(=O)CSc2nnnn2C)sc(C)c1C,-8%,-13%,0%,5%,-7%,-9%,2.0%,1%
COc1ccccc1C(NC(C)=O)c1cc(Cl)c2cccnc2c1O (stereo not drawn),3.2µM*,1%,3%,7%,·,21%,·,?
CCOC(=O)c1c(C)oc2nc(C)nc(NCc3cccc(OC)c3)c12,·,·,·,·,?,-20%,-6.6%,-2%[46.1 µM]
CCOc1ccc(Br)cc1C(=O)Nc1ccc(C(=O)NCC(C)C)cc1,?,10%,20%,1%,?,-29%,3.7%,3%
COc1ccc(Cc2nnc(N)s2)cc1OC,10%,9%[9.22 µM],1%,-2%,1%,8%,-0.5%,15%
Nc1ccc(C#Cc2ccc3c(=O)c4ccccc4oc3c2)cc1,·,9%,-1%,9%,·,52%[activator],·,·
CC(C)COP(=O)(OCC(C)C)C(Nc1ccccc1)c1ccccc1 (stereo not drawn),?,-2%,-4%,4%,·,-22%,·,-22%
Cc1ccc(S(=O)(=O)NCCC(=O)OCC(=O)N(Cc2ccccc2)C(C)(C)C)cc1,-6%[46.1 µM],·,2%,3%,·,-14%,·,9%
O=C(CCC1CCCC1)NNC(=O)c1cc2ccccc2cc1O,-6%[46.1 µM],11%,15%,-8%,·,-6%,·,2%
COc1cc(CCN2C(=O)c3cccc4cccc(c34)C2=O)c(S(=O)(=O)N2CCC(C)CC2)cc1OC,?,16%,-11%,-4%,-4%,14%,-4.2%,?
Cc1ccc2cc(C#N)c(SCC(=O)NNC(=O)Cc3ccccc3)nc2c1,3%,23%,-12%,-6%,10µM*,-14%,-2.5%,7%
O=C(NCc1ccc(F)cc1)c1cc2c(s1)-c1ccccc1SC2,3%[46.1 µM],·,·,·,?,6%,-12%,?
COc1ccc(CNC(=O)Cn2c(SCC(=O)Nc3ccc(C)c(C)c3)nc3ccccc32)cc1,·,·,·,·,19%,-12%,-0.7%,?
O=C(Nc1ccc(Cl)c(Cl)c1)C1CCN(C(=O)c2ccco2)CC1,-20%,·,-5%,-5%,·,-23%,·,11%
CN(C)N1C(N)=C(C#N)C(c2cccnc2)C2=C1CC(C)(C)CC2=O (stereo not drawn),-14%[46.1 µM],10%,5%,-11%,-6%,-16%,3.5%,3%
CN(C)N1C(=O)c2c(Cl)c(Cl)c(Cl)c(Cl)c2C1=O,?,·,·,-2%,·,-17%,·,1%[46.1 µM]
COCCNC(=O)Cn1nc(C)c([N+](=O)[O-])c1C,29%[46.1 µM],2%,-1%,-7%,·,-9%,·,1%
O=C(O)CCCNS(=O)(=O)c1ccc(Br)s1,-25%,-6%,-1%,-5%,-4%,·,1.0%,2%
N/C(=N\OC(=O)c1ccccc1F)c1ccc([N+](=O)[O-])cc1,·,1%,-3%,12%,·,20%,·,·
Cc1nn(CC(=O)Nc2cccnc2)c(=O)c2ccccc12,-17%[46.1 µM],6%,-1%,10%,·,-11%,·,1%
N=C(N)n1c(N)nc2ccccc2c1=O,·,-3%,-2%,5%,·,5%,·,·
O=C(CCS(=O)(=O)CCN1CCOCC1)NCNC(=O)CCS(=O)(=O)CCN1CCOCC1,-5%[46.1 µM],-2%,20%,7%,·,-15%,·,3%[46.1 µM]
CCCC1CCc2c(sc(NC(=O)c3cccs3)c2C(N)=O)C1 (stereo not drawn),22%,3%,-4%,-4%,?,·,-2.4%,-12%
CCOc1ccc(Nc2nc(C)c(NC(=O)c3ccc(C)cc3)c(Nc3ccc(OCC)cc3)n2)cc1,?,·,·,·,?,-23%,-5.9%,4%[46.1 µM]
O=c1ccccn1Cc1c(Cl)cccc1Cl,-7%,11%,1%,16%,-9%,14%,5.4%,-14%[14.3 µM]
O=C(NCc1ccco1)N1c2ccccc2Sc2ccccc21,4%,-4%,-17%,15%,-6%,-12%,-11%,10%
COc1cc2c(cc1NC(=O)/C=C/c1ccc([N+](=O)[O-])cc1)oc1ccccc12,1%,-7%,9%,4%,5µM*,-2%,-2.3%,-1%
COc1ccccc1-c1nc(-c2ccncc2)no1,?,-60%,0%,-8%[3.69 µM],-8%,16%,-1.5%,-17%
COc1ccc(C)cc1S(=O)(=O)NC1CCCC1,6%,-4%,5%,0%,-8%,82%[activator],0.7%,20%
Cc1ccccc1C(=O)O/N=C(\N)c1ccccc1,?,-54%,-9%,-17%,·,11µM*,·,?
Cc1cc2ccccn2c1C(=O)c1ccc([N+](=O)[O-])o1,?,·,-4%,-5%,·,?,·,?
CC(=O)Nc1ccc(NC(=O)c2cc(-c3cccs3)on2)cc1,-24%[46.1 µM],·,·,·,-5%,48%[activator],-2.4%,2%[46.1 µM]
CCN(CC)CCSc1nnc2c3cc(F)ccc3n(CC)c2n1,-18%[46.1 µM],·,·,·,25µM*,-16%,25µM*,6%[46.1 µM]
Cc1cccc(OCC(=O)NCC2(N3CCN(C)CC3)CCCCC2)c1C,?,·,·,·,5%,-5%,2.6%,-22%[46.1 µM]
Cc1cccc(NC(=O)CCOc2ccccc2)c1,15%,-69%,-3%,-17%,-3%,36%[activator],0.7%,?
Cc1nc2ccccc2nc1N/N=C/c1ccc(O)cc1,·,-4%,-3%,-3%,·,26%,·,·
Cc1cc(C)n2c(nc3ccccc32)c1C(=O)NCc1ccccc1,-10%,·,-1%,2%,·,-1%,·,0%
Fc1cccc(Cl)c1CN1CCN(c2nc3ccccc3s2)CC1,?,-12%,-2%,?,·,-10%,·,?
Cc1cc2cc(C#N)c(N3CCOCC3)nc2cc1Cl,·,0%,0%,-13%,·,20%,·,·
Cc1ccc(CNC(=O)Cc2csc3ccccc23)cc1,?,·,·,·,-4%,53%[activator],-4.9%,5%[46.1 µM]

# (further entries)
SMILES,Marburg entry inh,NS1 function inh,SARS PLpro yeast,RE007 growth inh,Cruzain noTriton,StopGo reporter,Cruzain inh Det,Lassa entry inh
O=C(CCN1CCOCC1)Nc1ccc(F)cc1,·,1%,6%,-2%,·,-5%,·,·
N#CC1(NC(=O)CN2C(=O)NC(Cc3c[nH]c4ccccc34)C2=O)CCCCC1 (stereo not drawn),-2%,·,-26%,-8%,·,-7%,·,-2%
CCc1ccccc1OCC(=O)Nc1cccc(S(=O)(=O)N2CCCC2)c1,?,·,8%,-13%,·,0%,·,-21%
O=C(CSc1nnc(-c2ccccc2F)n1C1CC1)Nc1cccnc1Cl,-3%,-4%,-1%,·,4%,?,-1.4%,-1%
CCCC1=Nc2cc(C(=O)NCCCN3CCOCC3)ccc2Sc2ccccc21,·,7%,4%,-1%,·,-9%,·,·
CCOC(=O)CNC(=O)C12CC3CC(C1)CC(c1ccc(C)cc1)(C3)C2,1%[46.1 µM],-3%,1%,59%,·,-9%,·,?
COC(=O)C1CCN(C(=O)c2ccc3oc(Cc4ccc(Cl)cc4)nc3c2)CC1,·,-45%,-2%,1%,·,1%,·,·
O=C(CNC(=O)c1ccc2c(c1)OCO2)N/N=C/c1cccc([N+](=O)[O-])c1,·,-4%,0%,-2%,·,7%,·,·
Cc1ccc(S(=O)(=O)NNC(=O)CCCCC(=O)NNS(=O)(=O)c2ccc(C)cc2)cc1,5%[46.1 µM],·,0%,3%,·,-2%,·,5%[46.1 µM]
